Mtb H37Rv: M. tuberculosis H37Rv growth inhibitors, H37Rv strain (AID 1626); inhibition, % at 10 µM; hits with a dose series show IC50 in µM; 220,000 tested, 0.95% active; M. tuberculosis H37Rv growth inhibition; higher % means a stronger effect;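 active means confirmed in a dose series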;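 further: bacteria incubated seven days before Alamar blue readout; 0% = bacteria only wells and 100% = bacteria with antibiotic wells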
RecA splice inh: Mtb RecA intein splicing inhibitors, primary screen, biochemical, fluorescence, HTS; Protein RecA (Mycobacterium tuberculosis (strain ATCC 25618 / H37Rv)), P9WHJ3; cell-free RecA intein splicing; inhibition, %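 (about 9 µM by stock and volumes)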; 290,000 tested, 0.75% active; AID 2221, 2009; in the data active means inhibition above about 30%;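 further: 0% = vehicle wells and 100% = reference inhibitor control wells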
Target sequence (P9WHJ3 whole entry, looked up, canonical isoform): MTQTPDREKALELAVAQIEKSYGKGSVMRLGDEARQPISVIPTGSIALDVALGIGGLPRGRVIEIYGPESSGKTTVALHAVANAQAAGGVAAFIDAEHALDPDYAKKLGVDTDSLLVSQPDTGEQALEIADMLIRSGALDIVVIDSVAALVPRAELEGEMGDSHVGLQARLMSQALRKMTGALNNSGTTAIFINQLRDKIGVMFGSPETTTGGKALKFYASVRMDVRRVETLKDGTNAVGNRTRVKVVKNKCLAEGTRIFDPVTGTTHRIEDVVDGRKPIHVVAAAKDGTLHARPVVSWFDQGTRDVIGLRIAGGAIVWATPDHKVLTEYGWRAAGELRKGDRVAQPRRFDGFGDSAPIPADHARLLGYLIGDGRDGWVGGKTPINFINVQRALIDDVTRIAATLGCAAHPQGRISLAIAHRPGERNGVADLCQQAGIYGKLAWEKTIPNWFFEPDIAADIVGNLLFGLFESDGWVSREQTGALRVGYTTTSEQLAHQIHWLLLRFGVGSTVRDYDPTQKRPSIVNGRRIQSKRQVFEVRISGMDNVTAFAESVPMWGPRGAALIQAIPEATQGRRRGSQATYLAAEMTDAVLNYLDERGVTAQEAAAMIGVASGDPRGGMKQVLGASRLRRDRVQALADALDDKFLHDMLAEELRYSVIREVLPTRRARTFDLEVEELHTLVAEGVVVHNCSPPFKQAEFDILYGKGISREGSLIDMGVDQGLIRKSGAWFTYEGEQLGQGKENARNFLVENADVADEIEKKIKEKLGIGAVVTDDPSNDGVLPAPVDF
Mtb bLac sens: beta-lactam sensitization of Mtb H37Rv, H37Rv; M. tuberculosis H37Rv growth with meropenem, percent inhibition; hits of this screen are not shown here; inhibition, % at 25 µM; 330,000 tested, 0.27% active; AID 434955, 2010;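 active means about 74% or more and at least 40 points above the plate without the antibiotic, then above 30% in a dose series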;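 further: growth measured after seven days incubation then overnight dye step; 0% = bacteria only wells and 100% = bacteria with antibiotic; twin plates without the antibiotic show which effects depend on it; some results filed as inactive read as strong as hits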
Arbovirus inh: antivirals against arbovirus infection, primary screen, cell-based, full library, 10K replicate subset | arbovirus infection cell-based antiviral screen | inhibition, % at 10 µM | 200,000 tested, 0.37% active | AID 1251, 2008;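 active means inhibition from about 30%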;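 further: bluetongue infection of BSR cells; cell survival read as ATP light after 72 h; 0% = infected wells without compound and 100% = uninfected wells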
YopH PTP inh: YopH tyrosine phosphatase inhibitors, primary screen, biochemical, fluorescence Ex485/Em525; inhibition, %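 (about 10 µM by stock and volumes)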; 140,000 tested, 0.16% active; AID 898, 2007;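 active means inhibition of 50% or more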;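 further: controls were vehicle for no effect and minimum signal wells for full effect; inactives centre near -20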
Arbovirus inh repeat: second read-out of Arbovirus inh, no call of its own (marks repeat the call); inhibition, %; measured here: 10K subset replicate screen; many hits read low in the repeat;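 first of two repeat runs on a subset; 0% = infected and 100% = uninfected wells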
The depositor's hits bear a star; . = no result given.

The opening 15 compounds (preview)
SMILES	Mtb H37Rv	RecA splice inh	Mtb bLac sens	Arbovirus inh	YopH PTP inh	others
NS(=O)(=O)c1ccc(CCNC(=O)NC2(C(F)(F)F)Oc3ccccc3O2)cc1	-7%	-3.2	-7	-10	10	Arbovirus inh repeat=-13
Cc1ccc(S(=O)(=O)N(CC(=O)NCc2ccco2)Cc2ccccc2F)cc1	1%	3.4	.	-1	-20
COc1ccc(N(C(=O)c2snc(C(N)=O)c2N)C(C(=O)NC2CCCC2)c2ccc(C)o2)c(OC)c1 (centres undefined)	.	6.0	1	.	.
Cc1nc(C(=O)O)nn1-c1cc(Cl)ccc1Cl	-2%	-2.0	-7	-1	.
CCC(=O)N1CCCC(C(=O)c2ccc(-c3ccccc3)cc2)C1 (centres undefined)	.	0.0	3	.	.
O=C(/C=C/c1ccccc1)NC(=S)Nc1ccc(N2CCOCC2)cc1	9%	.	1	-3	-18
Cc1cc(=O)c(C(=O)O)nn1-c1ccccc1F	.	-0.1	-1	.	.
O=C(CCNC(=O)c1ccccc1Cl)Nc1ccc(S(=O)(=O)Nc2ncccn2)cc1	3%	-1.8	8	0	.
O=C(NCc1cccnc1)c1cc(-c2ccc(Cl)cc2)oc1C(F)(F)F	14%	1.5	-3	.	.
CCN1C(=O)/C(=C2/SC(C)=C(C)N2CC)SC1=S	-13%	-3.1	3	1	-22
Cc1ccc(C(=O)OCC(=O)NCc2ccco2)cc1S(=O)(=O)N1CCOCC1	.	1.6	3	.	.
Cc1nc(-c2coc3cc(C)c(N=O)c(O)c3/c2=N\N)cs1	-2%	-6.0	-11	19	.
CCc1nnc(NC(=O)CSc2nnc(-c3c[nH]c4ccccc34)n2CC)s1	-3%	-3.7	-16	2	-61
CCN(CC)S(=O)(=O)c1ccc(S(=O)(=O)N2CCCC(C(=O)NC3CC3)C2)cc1 (centres undefined)	.	5.5	-5	.	.
O=C(CSc1cccc2cccnc12)Nc1ccc(S(=O)(=O)N2CCOCC2)cc1	-6%	-2.1	-1	.	.

Main list, from the start:
SMILES	Mtb H37Rv	RecA splice inh	Mtb bLac sens	Arbovirus inh	YopH PTP inh	others
NS(=O)(=O)c1ccc(CCNC(=O)NC2(C(F)(F)F)Oc3ccccc3O2)cc1	-7%	-3.2	-7	-10	10	Arbovirus inh repeat=-13
Cc1ccc(S(=O)(=O)N(CC(=O)NCc2ccco2)Cc2ccccc2F)cc1	1%	3.4	.	-1	-20
COc1ccc(N(C(=O)c2snc(C(N)=O)c2N)C(C(=O)NC2CCCC2)c2ccc(C)o2)c(OC)c1 (centres undefined)	.	6.0	1	.	.
Cc1nc(C(=O)O)nn1-c1cc(Cl)ccc1Cl	-2%	-2.0	-7	-1	.
CCC(=O)N1CCCC(C(=O)c2ccc(-c3ccccc3)cc2)C1 (centres undefined)	.	0.0	3	.	.
O=C(/C=C/c1ccccc1)NC(=S)Nc1ccc(N2CCOCC2)cc1	9%	.	1	-3	-18
Cc1cc(=O)c(C(=O)O)nn1-c1ccccc1F	.	-0.1	-1	.	.
O=C(CCNC(=O)c1ccccc1Cl)Nc1ccc(S(=O)(=O)Nc2ncccn2)cc1	3%	-1.8	8	0	.
O=C(NCc1cccnc1)c1cc(-c2ccc(Cl)cc2)oc1C(F)(F)F	14%	1.5	-3	.	.
CCN1C(=O)/C(=C2/SC(C)=C(C)N2CC)SC1=S	-13%	-3.1	3	1	-22
Cc1ccc(C(=O)OCC(=O)NCc2ccco2)cc1S(=O)(=O)N1CCOCC1	.	1.6	3	.	.
Cc1nc(-c2coc3cc(C)c(N=O)c(O)c3/c2=N\N)cs1	-2%	-6.0	-11	19	.
CCc1nnc(NC(=O)CSc2nnc(-c3c[nH]c4ccccc34)n2CC)s1	-3%	-3.7	-16	2	-61
CCN(CC)S(=O)(=O)c1ccc(S(=O)(=O)N2CCCC(C(=O)NC3CC3)C2)cc1 (centres undefined)	.	5.5	-5	.	.
O=C(CSc1cccc2cccnc12)Nc1ccc(S(=O)(=O)N2CCOCC2)cc1	-6%	-2.1	-1	.	.
O=c1c(C=NCc2cccs2)c(O)n(C2CCCCC2)c(=O)n1C1CCCCC1	23%	3.7	14	12	1
CSc1ccccc1NC(=O)CN1c2ccccc2CC1C (centres undefined)	-6%	5.3	1	.	.
O=C(COC(=O)C1CCCN1C(=O)c1cccs1)c1ccccc1 (centres undefined)	-2%	-0.3	-10	-5	-27
COc1cc(C(=S)N2CCC(C(N)=O)CC2)ccc1O	-6%	.	-6	2	-33
Cn1nc(C(F)(F)F)c(C#N)c1N1CCN(c2ccccc2)CC1	1%	4.8	0	6	3
CCN1CCN(c2ncnc3ccc(Br)cc23)CC1	-5%	0.1	-3	15	-6
COc1ccc(-c2cc3ccccc3s2)cc1[C@H]1[C@H]2C=CC[C@@H](C)[C@@H]2C(=O)N1Cc1ccccc1	1%	-1.3	0	.	.
C=CP(=O)(O)c1ccccc1	-3%	1.0	6	5	-22
C/C(=N\NC(=O)CSc1nc(C)cc(C)n1)c1ccc2c(c1)OCCO2	-1%	-1.3	1	16	.
COc1ccc(C(=O)CSc2n[nH]c(C)n2)cc1[N+](=O)[O-]	4%	1.7	-11	1	.
O=C(NCCN1CCOCC1)c1cc(Cl)ccc1[N+](=O)[O-]	-1%	2.9	11	-3	-34
CC(C)[C@H](NC(=O)N1c2ccccc2NC(=O)[C@@H]1C(C)C)C(=O)N[C@@H](Cc1c[nH]c2ccccc12)C(=O)O	.	9.6	-7	.	.
COc1ccc(N(CC(=O)Nc2ccc(C(C)C)cc2)S(=O)(=O)c2c(C)noc2C)cc1	.	-2.4	14	.	.
O=C(Nc1c2c(nn1-c1ccccc1)CS(=O)(=O)C2)c1ccccc1Br	.	3.2	-1	.	.
CCOC(=O)C1=C(C)NC(C)=C(C(=O)OCC)C1c1ccc(O)cc1	0%	0.8	0	-4	2
COc1ccc(-c2nc(C)c(C(C)=O)n2O)cc1[N+](=O)[O-]	0%	-0.2	-1	19	.
COC(=O)c1ccc(CSc2nnc(-c3ccncc3)o2)o1	41%	3.2	96	4	-19
CCN1CCN(C(=O)CN2C(=O)COc3ccc(S(=O)(=O)N4CCOCC4)cc32)CC1	.	6.2	-4	.	.
COCC(C)n1c(SCc2cc(C(=O)OC)c(C)o2)nc2ccccc2c1=O (centres undefined)	4%	-9.0	5	.	.
C/C(=N\NC(=O)c1cccs1)c1ccc2c(c1)OCO2	2%	1.2	-1	1	.
CCC(=O)NNc1nc2c(C)cccc2s1	0%	-3.0	-1	-4	.
Cc1ccc2nc(C3CCN(CC(=O)Nc4ccc5c(c4)OCCO5)CC3)[nH]c2c1	-2%	.	19	-16	-24
CCCS(=O)(=O)N1CCC(C(=O)NCCCOCC)CC1	-4%	-0.6	-8	-1	7
Cc1c(N2CCCC2)cc2c(c1NC(=O)c1ccccc1Cl)C(C)(C)CC2(C)C	7%	8.8	69	.	.
O=C(Cc1ccccc1Cl)N1CCOCC1	.	1.2	3	.	.
COc1ccc(-c2csc3ncnc(Oc4cccc5ccc(C)nc45)c23)cc1	20%	-9.0	78	-6	-25
O=C(COC(=O)/C=C/c1ccc(C(F)(F)F)cc1)NCC1CCCCC1	.	-0.2	0	.	.
Cc1nc(SCC(=O)c2c[nH]c3ccccc23)n[nH]1	-9%	-4.7	7	6	10
Cc1nn(Cc2ccccc2)c(Cl)c1C(=O)O	-7%	-2.9	0	8	.
CC(CC(=O)O)CC(=O)Nc1cc([N+](=O)[O-])ccc1O (centres undefined)	-1%	.	-2	-1	.
Cc1cc([N+](=O)[O-])nn1CCCC(=O)Nc1ccc(Cl)cc1Cl	4%	3.4	-4	-4	.
COc1cc(C(=O)N2CCN(Cc3ccc4c(c3)OCO4)CC2)cc(OC)c1OC	.	-2.9	2	.	.
COc1ccccc1C(=O)N1CCN=C1c1ccccc1	-5%	0.0	-7	-1	-4
COc1ccc(/C=N/Nc2c(Cl)cc(Cl)cc2Cl)cc1CN1CCOCC1	8%	2.3	6	-19	-23
CN(Cc1ccccc1)C(=O)C1CCCN(Cc2cccc(Cl)c2)C1 (centres undefined)	-1%	0.9	-2	0	.
COc1ccc(N2CCN(S(=O)(=O)CCNC(=O)COc3ccccc3OC)CC2)cc1	.	0.7	5	.	.
CCn1c(SCc2nc(CC(=O)Nc3ccccc3OC)no2)nnc1-c1cccs1	1%	-0.7	-5	0	-33
CCOC(=O)C1=C(c2ccccc2)N(C)C(=O)NC1c1ccc(O)c(OC)c1 (centres undefined)	3%	0.3	2	-1	-47
O=C1NC(=O)N(c2ccc3c(c2)OCO3)C(=O)/C1=C/c1ccc(N2CCCC2)o1	-7%	-1.7	7	-3	-19
CCc1ccc(Nc2c([N+](=O)[O-])c(=O)oc3ccccc23)cc1	>100µM*	0.3	90	.	.
O=C(O)c1ccc2c(c1)CC(c1ccccc1)OC2=O (centres undefined)	-9%	2.1	0	0	-21
N#C/C(=N\Nc1ccc(Cl)cc1)C(=N)N1CCCCC1	2%	3.1	17	-5	-27
COc1cccc(NC(=O)Cn2c(=O)n(-c3cc(OC)c(OC)c(OC)c3)c(=O)c3ccccc32)c1	1%	-4.6	-5	-9	.
Cc1ccccc1-c1nc(CS(=O)(=O)CC(=O)NCCCN2CC(C)CC(C)C2)c(C)o1 (centres undefined)	.	2.3	-4	.	.
Cc1cc2nnc(SCC(=O)NCc3cccs3)n2c2ccccc12	-2%	-1.4	-7	-7	-3
More structures follow.
SMILES	Mtb H37Rv	RecA splice inh	Mtb bLac sens	Arbovirus inh	YopH PTP inh	others
Cc1ccc2[nH]ccc(=O)c2c1	-7%	0.2	5	-3	-18
CNc1nc2c3ccccc3n(C(C)=O)c2s1	9%	2.1	-3	-8	-9
COc1ccccc1N1CCN(C2CCCN(Cc3cccc(O)c3)C2)CC1 (centres undefined)	.	-0.5	-1	.	.
COc1cc2c(cc1OC)CN(C(=O)CSc1nc(N)c(C#N)cc1C#N)CC2	0%	-1.4	5	-1	3
COC(=O)CCC(=O)N1CCOCCOCCOCC1	-4%	-0.6	5	-5	.
CCOCCCn1cnc2c3cc(F)ccc3n(C)c2c1=O	0%	-0.5	2	.	.
COc1cc2c(cc1OC)C(CSc1ccccc1C(=O)O)=NC(C)(C)C2	-3%	-12	1	10	.
COC(=O)C1Cc2ccccc2CN1C(=O)CCl (centres undefined)	6%	26	98	7	.
Cc1ccc(CNC(=O)CCOc2ccc(C(C)(C)C)cc2)cc1	-14%	-1.3	11	13	-3
CC(C)(C)OCC(O)CN1CCN(C(=O)c2ccccc2)CC1 (centres undefined)	4%	-2.8	-6	16	.
COC(=O)c1c(C)[nH]c(C(=O)OC(C)C(=O)N2CCOCC2)c1C (centres undefined)	.	-1.3	4	.	.
CC1=[N+]([O-])C(N2CCOCC2)C(O)(c2ccccc2)C1 (centres undefined)	-7%	0.1	-1	8	-9
NP(=O)(OCC(F)(F)F)Oc1ccc(Cl)cc1 (centres undefined)	6%	1.2	7	-6	-41
CCN1C(=O)[C@H]2[C@@H](c3ccc(C)cc3)N3C(=O)N(c4ccc(OC)cc4)C(=O)[C@@]3(C)[C@H]2C1=O	.	-1.4	-11	.	.
N#Cc1ccc(-c2ccc(F)cc2)nc1Oc1ccc(Cl)c(Cl)c1	-1%	2.1	9	-8	-18
CCCCNS(=O)(=O)c1ccc(S(=O)(=O)n2cnc3ccccc32)cc1	-8%	.	0	-1	-9
CC(C)NS(=O)(=O)c1ccc(OCC(=O)Nc2ccc3c(c2)OCCO3)cc1	-5%	-0.5	12	-7	-64
O=[N+]([O-])c1cc(-n2cccc2)ccc1N1CCOCC1	7%	5.5	-5	4	.
COc1cc(/C=C/C(=O)NC(C)CCc2ccccc2)cc(OC)c1OC (centres undefined)	-1%	0.2	2	3	-2
O=[N+]([O-])C1=CC=C2C(=NC3(CCCCC3)N2O)C1=NCCO	.	.	0	9	-38
CCCC(=O)N1CCCC(c2nc(-c3cccc(OC)c3)no2)C1 (centres undefined)	6%	6.4	-3	-1	.
CC(=O)Nc1ccc(NC(=O)C(C)OC(=O)/C=C/c2cccs2)cc1 (centres undefined)	4%	-0.8	-7	7	.
COc1ccccc1OCC(=O)N(Cc1nc(-c2ccc(Cl)cc2)no1)C(C)C	7%	7.0	6	5	-30	Arbovirus inh repeat=1
O=C(COC(=O)c1cccnc1Cl)Nc1cccc(S(=O)(=O)N2CCCCC2)c1	6%	0.2	0	3	.
CC(=O)Nc1ccc(S(=O)(=O)N(Cc2ccccc2)c2ccccc2)cc1	-8%	4.7	3	-9	.
COC(=O)C(Cc1cnc[nH]1)NC(=O)C1CCC(=O)N1 (centres undefined)	-10%	-1.9	1	1	-54
CCN(CCO)C(=O)c1ccc2nc(Cc3ccc(OC)cc3)oc2c1	.	-0.9	4	.	.

Screens as filed in PubChem BioAssay.

The list is partial, so the mix of outcomes need not match the whole.
